Screening data (PubChem)
TSHR agonist = activates the human thyroid stimulating hormone receptor. P16473. HEK293-CNG-TSHR cells (CNG channel as cAMP sensor), membrane potential dye, cAMP. Potency, µM (top dose mostly 57.1 µM), for inactives: at the highest dose activation, most hits filed as activators. actives 0.48% (n = 73,000); active = well fitted activation curve of enough size with the parental cells flat; inconclusive = any curve in the parental cells; inactive = parental cells flat and receptor cells flat or falling; further: potency means the concentration at half of the fitted maximal effect; % of control where 0% means no effect; weak receptor curves with flat parental cells got no call and are not listed
Target sequence (P16473 whole entry, looked up): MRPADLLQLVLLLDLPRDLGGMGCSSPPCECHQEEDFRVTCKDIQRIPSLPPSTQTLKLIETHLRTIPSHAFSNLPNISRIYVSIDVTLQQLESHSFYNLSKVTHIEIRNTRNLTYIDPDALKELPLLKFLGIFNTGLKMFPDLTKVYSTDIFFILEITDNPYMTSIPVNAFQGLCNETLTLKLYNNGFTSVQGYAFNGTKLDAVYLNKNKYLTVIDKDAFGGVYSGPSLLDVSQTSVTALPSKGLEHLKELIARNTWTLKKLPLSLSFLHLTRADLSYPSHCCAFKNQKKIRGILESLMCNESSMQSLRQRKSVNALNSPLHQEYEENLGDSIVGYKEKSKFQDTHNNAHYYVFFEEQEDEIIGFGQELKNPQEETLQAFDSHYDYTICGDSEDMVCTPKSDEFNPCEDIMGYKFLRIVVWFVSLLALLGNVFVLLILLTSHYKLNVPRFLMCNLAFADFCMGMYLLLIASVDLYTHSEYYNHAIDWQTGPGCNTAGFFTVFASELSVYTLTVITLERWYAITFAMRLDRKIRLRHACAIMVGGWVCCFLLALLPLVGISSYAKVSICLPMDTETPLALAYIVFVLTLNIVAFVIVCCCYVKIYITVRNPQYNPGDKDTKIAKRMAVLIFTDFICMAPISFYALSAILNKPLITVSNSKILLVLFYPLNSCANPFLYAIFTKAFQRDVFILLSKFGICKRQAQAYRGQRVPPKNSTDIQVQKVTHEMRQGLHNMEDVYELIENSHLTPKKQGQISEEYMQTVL
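HEK 293 cells stably expressing TSHR and a modified CNG channel, with CNG-only parental cells as counterscreen, were preloaded 60 min at room temperature with membrane potential dye containing 100 uM RO 20-1724. Compound exposure was 30 min, and depolarization was read as fluorescence at 590 nm.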
A647 fluor = compound fluoresces in the A647 spectral region. Compound fluorescence, A647 channel (570/671 nm), Tris buffer. max dye-equivalent concentration, M. 59,000 tested, under 10 active. AID 592; active means above 1 µM dye equivalent; inconclusive means 0.1 to 1 µM; inactive means 0.1 µM or less;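 further: values scaled relative to a standard on each plate; highest value over a series up to 38 µM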
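Compounds pinned into 100 mM Tris pH 8.0, 15 min at room temperature, then read with 570 nm excitation/671 nm emission filters. Fluorescence normalized to an on-plate six-point Alexa 647 standard curve, giving dye-equivalent concentration per compound concentration.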
A488 fluor = A488 region autofluorescence; compound autofluorescence, A488 spectral region, dye equivalency; hits give high values; max dye equivalency, M; actives 0.1% (n = 59,000); AID 591; active = above 10 nM dye equivalent; inconclusive = 1 to 10 nM; inactive = 1 nM or less; about half of its hits are not listed in these tables;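 further: highest value over a series up to 38 µM; compound alone in buffer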
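Compounds pin-transferred into 100 mM Tris buffer, pH 8.0, incubated 15 min at room temperature, then imaged with 480 nm excitation/540 nm emission filters. Fluorescence converted to Alexa 488 dye-equivalent concentration via an on-plate six-point A488 standard curve.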
AID923 = qHTS Assay for Allosteric/Competitive Inhibitors of Caspase-1: Spectroscopic Profiling in AFC Spectral Region | AID 923, 2007 | actives 1.1% (n = 75,000) | compound fluorescence, AFC spectral region (405/520 nm); almost no hit is shown here | Potency, µM (titrated, usually from 57.5 µM), without a hit: at the highest dose fluorescence increase, most hits filed as activators; active means well fitted activation curve with a large enough effect; inconclusive means small, poorly fitted or top-dose-only effect;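 further: potency means the concentration at half of the fitted maximal effect; 0% is about no effect; scaled to a free AFC standard on each plate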
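Compound autofluorescence profiled at 405 nm ex/520 nm em during kinetic caspase 1 run (50 nM enzyme, 5 uM Ac-WEHD-AFC, HEPES pH 7.5, 10 mM DTT). Titration up to 57 uM; baseline from regression intercept, normalized to AFC standard curve.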
Resorufin autofl = resorufin region autofluorescence; Compound fluorescence, resorufin region 547/598 nm, buffer; hits give high values; max dye-equivalent concentration, M; actives 0.04% (n = 59,000); AID 588; active = above 10 nM dye equivalent; inconclusive = 1 to 10 nM; inactive = 1 nM or less; a few of its hits are not listed in these tables; further: highest value over a series up to 38 µM
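Compounds in 100 mM Tris buffer, pH 8.0, incubated 15 min at room temperature, then read with 547 nm excitation and 598 nm emission filters. Fluorescence was converted to dye-equivalent concentration using an on-plate six-point resorufin standard curve.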
Active calls of the source: *; i = inactive; ? = inconclusive; / = not tested or not shown; & = joins results of further samples; [ ] = dose if it differs, or a comment.

The first 6 compounds, to show the layout:
SMILES | TSHR agonist | A647 fluor | A488 fluor | AID923 | Resorufin autofl
Cc1ccc(S(=O)(=O)C2(C(=O)Nc3nccs3)CC2)cc1 | 6% | / | / | 0.0% | /
Cc1cccc(CN(C)CCc2ccccn2)c1 | 17%[11.4 µM] | / | / | -0.1% | /
CS(=O)(=O)N1CCC(C(=O)Nc2ccccc2F)CC1 | ? | 4.7e-08 | i | 0.3% | i
c1cncc(Nc2nc(-c3ccncc3)cs2)c1 | -28% | 3e-09 | i | 0.6% | i
O=C1c2ccccc2C2(c3ccccc3)NCCN12 (centres undefined) | 14% | 4.5e-08 | i | -1.6% | i
CCOC(=O)N1CCN(C(=O)c2cc(-c3ccc(F)cc3)[nH]c2C)CC1 | -1% | 1e-09 | i | 0.7% | i

This part in full (from the top)
SMILES | TSHR agonist | A647 fluor | A488 fluor | AID923 | Resorufin autofl
Cc1ccc(S(=O)(=O)C2(C(=O)Nc3nccs3)CC2)cc1 | 6% | / | / | 0.0% | /
Cc1cccc(CN(C)CCc2ccccn2)c1 | 17%[11.4 µM] | / | / | -0.1% | /
CS(=O)(=O)N1CCC(C(=O)Nc2ccccc2F)CC1 | ? | 4.7e-08 | i | 0.3% | i
c1cncc(Nc2nc(-c3ccncc3)cs2)c1 | -28% | 3e-09 | i | 0.6% | i
O=C1c2ccccc2C2(c3ccccc3)NCCN12 (centres undefined) | 14% | 4.5e-08 | i | -1.6% | i
CCOC(=O)N1CCN(C(=O)c2cc(-c3ccc(F)cc3)[nH]c2C)CC1 | -1% | 1e-09 | i | 0.7% | i
O=C(O)C/C=C\CC(=O)O | 6%[11.4 µM] | 5.2e-08 | i | 0.5%[11.5 µM] | i
CC1(C)CC(C#N)(N2CCOCC2)CCO1 (centres undefined) | -11% | 4.6e-09 | i | 1.5% | i
CC1(C)CC(NC(=O)C23CCC(C)(/C(=N/O)C2)C3(C)C)CC(C)(C)N1 (centres undefined) | / | 3.7e-08 | i | / | i
O=C(c1ccc2nc(N3CCOCC3)sc2c1)N1CCN(C(=O)c2ccco2)CC1 | 1% | / | / | -2.5% | /
O=C(O)C1CC(=O)N(Cc2cccs2)C1 (centres undefined) | / | 4.8e-08 | i | / | i
CC(=O)O[C@@H]1CC[C@]2(C)[C@H]3CC[C@]4(C)[C@H](C[C@H]5CCCC[C@@]54C(C)=O)[C@@H]3CC(=O)[C@@]2(O)C1 | -1% | 4.7e-09 | i | / | i
Cc1[nH]c2ccccc2c1C1=CN2CCS(=O)(=O)N=C2S1 | -5% | 2.7e-09 | i | -0.9% | i
CCN1CCN(Cc2ccc(OCc3ccccc3)cc2)CC1 | 5% | 2.7e-08 | i | -0.3% | i
CCOCC(O)CSCc1ccc(Cl)cc1 (centres undefined) | -2% | / | / | 1.5% | /
Cc1nn(Cc2ccc(Cl)cc2)c(C)c1NC(=O)c1cc(-c2ccc3c(c2)OCO3)on1 | 3% | 1e-09 | i | -0.9% | i
COc1cc(Cl)c(C)cc1NC(=O)CSc1nc2ccccc2o1 | ? | 1.7e-08 | i | -1.9% | i
CCn1c(CN2CCN(C(=O)c3ccco3)CC2)nc2c1c(=O)n(C)c(=O)n2C | -8% | 4.6e-08 | i | -1.0% | i
COc1ccc(C2/C(=C(/O)c3ccccc3)C(=O)C(=O)N2CCN2CCOCC2)c(OC)c1 (centres undefined) | 2% | 4.9e-09 | i | 0.5% | i
Fc1cccc(Cl)c1Cn1nnc(-c2ccc3c(c2)OCO3)n1 | ? | 1.8e-08 | i | -2.5% | i
CCN1CCCC1CNC(=O)c1cc2c(-c3ccc(Cl)cc3)nn(C)c2s1 (centres undefined) | 4% | / | / | 0.1% | /
NC(=O)c1oc2ccccc2c1NC(=O)c1nc2ccccc2s1 | 0%[11.4 µM] | 3.3e-08 | i | 3.6% | i
Cc1ccsc1C(=O)OCC(=O)c1cc2ccccc2o1 | 1% | 2.7e-08 | i | 2.5% | i
Cc1ccc(OCCn2c(CCCO)nc3ccccc32)cc1 | ? | 2.2e-08 | i | 2.3% | i
O=C(CSc1n[nH]c(-c2ccncc2)n1)c1ccccc1 | -2% | 4.4e-09 | i | 2.3% | i
C=CCC(C#Cc1ccccc1)N(C)C (centres undefined) | 17% | 3.1e-08 | i | 1.5% | i
COc1ccc(NC(=O)CN(C)S(=O)(=O)c2cccc3cccnc23)cc1 | ? | / | / | 1.6% | /
COc1ccccc1CN1CC2(CCN(C(=O)c3ccncc3)CC2)C1 | 4% | 2.9e-08 | i | -1.1% | i
c1cncc(-c2nnc3n2N=C(c2cccs2)CS3)c1 | 15% | 2.9e-09 | i | 0.6% | i
Cn1cccc1C(=O)N1CCC2(CC1)CCN(c1ccccc1)CC2 | 5% | 2.1e-09 | i | -1.0% | i
CN1C(=O)CC(n2c(CO)nc3ccccc32)C1=O (centres undefined) | -17% | 3.5e-09 | i | 0.8% | i
CCC(=O)N1c2ccc(S(=O)(=O)CCC(=O)NCCC3=CCCCC3)cc2CC1C (centres undefined) | ? | 2.1e-09 | i | -0.8% | i
O=c1c2cnn(-c3ccccc3)c2nnn1Cc1ccccn1 | 5% | 3.8e-09 | i | 0.4% | i
COc1ccc2c(c1)N(C[C@@H](C)CN(C)C)c1ccccc1S2 | -14%[25.6 µM] | 2.9e-08 | i | -2.6%[25.7 µM] | i
O=C1C(Cl)=C(NCC2CCCO2)C(=O)N1CCc1ccccc1 (centres undefined) | 26% | 1e-09 | i | 4.7% | i
Cn1c2c(c(=O)n(C)c1=O)CN(CCCN1CCOCC1)CN2 | -3% | 1.8e-08 | i | -2.2% | i
C#CCCCO/N=C1/[C@H]2O[C@@H]2[C@@H](O)[C@H]2[C@H]1CCn1c(=O)n(-c3ccccc3)c(=O)n12 | -1%[11.4 µM] | / | / | 2.0%[11.5 µM] | /
COc1ccc(OC(C)C(=O)NCc2cccnc2)cc1 (centres undefined) | -2% | 1e-09 | i | 1.2% | i
CC12C=C(/C=C/c3ccccc3)C(C)(C1)C(c1ccccc1)CC2=O (centres undefined) | -3%[11.4 µM] | / | / | -1.0%[11.5 µM] | /
COc1ccc(NC(=O)COc2ccccc2)c(OC)c1 | 11% | 4.2e-09 | i | 0.7% | i
CC1CCCC(C)N1C(=O)COC(=O)c1ccc[nH]c1=O (centres undefined) | 1% | 1.5e-08 | i | -2.5% | i
CC(=O)c1cccc(S(=O)(=O)NCC(c2ccco2)N2CCCCC2)c1 (centres undefined) | 0% | 5.4e-08 | i | 0.1% | i
CCCN(CCC)c1nc(NC2CCN(C(=O)OCC)CC2)nc(OC)n1 | ? | 2.8e-08 | i | -0.1% | i
Cn1c(=S)c2[nH]c(SCCN3CCCC3)nc2n(C)c1=O | 6%[11.4 µM] | 1e-09 | i | -0.6%[11.5 µM] | i
COCCNC(=S)c1ccc(OC)cc1 | -5% | 1e-09 | i | -0.7% | i
COC(=O)c1cccc(OCC(O)Cn2ccnc2)c1 (centres undefined) | -2% | 3e-08 | i | -2.9% | i
COC(=O)N1CC(=O)N(OC)C1c1ccc(Cl)cc1Cl (centres undefined) | 1% | 1.8e-08 | i | 1.1% | i
CCC(C)OC(=O)C1=C(C)NC(=O)NC1c1ccc(F)cc1 (centres undefined) | 3% | / | / | -0.1% | /
CC(C)(C)C(=O)NC(=C(Cl)Cl)P(=O)(O)O | 2% | 1.4e-09 | i | 1.0% | i
Cc1ccc(-c2nnc(-c3ccc(NC(=O)c4ccco4)cc3)o2)cc1 | 12% | 1e-09 | i | -3.0% | i
Clc1ccc(-n2ncc3c(NCCN4CCOCC4)ncnc32)cc1 | / | 2.9e-08 | i | -1.0% | i
Cc1oc(C)c(C(=O)Nc2ccc(CC(=O)O)cc2)c1C(=O)Nc1ccc(CC(=O)O)cc1 | 7% | 1.5e-09 | i | -0.2% | i
CCCCc1nc2c(c3c1CC(C)OC3)CN(CCC(C)C)CC2 (centres undefined) | -7%[11.4 µM] | / | / | 0.2%[11.5 µM] | /
CC(Sc1nnc(-c2cc3ccccc3o2)n1-c1ccccc1)C(=O)O (centres undefined) | -9% | 1e-09 | i | 0.9% | i
CCCCn1c(SCC(=O)Nc2nc(C)cs2)nnc1-c1cccnc1 | -6%[11.4 µM] | 4.9e-09 | i | 0.0% | i
O=C(Nc1nnc(-c2ccccc2)o1)c1ccc(Cl)cc1 | 9% | 1e-09 | i | 0.1% | i
CCN1CCN(CC(O)COc2ccc(C)c(C)c2)CC1 (centres undefined) | 8% | 4.3e-08 | i | -0.1% | i
COc1ccc(OC)c(CCNC(=O)Cn2sc3nc(C)cc(C)c3c2=O)c1 | 2% | / | / | -0.2% | /
Cc1ccc(-c2c3c(=O)n(C)c(=O)n(C)c3cn2-n2cnnc2)cc1 | -3% | 1e-09 | i | -5.3% | i
C=C1C=C(Br)C2(OCCCO2)[C@H]2OC12 (some centres undefined) | -7%[11.4 µM] | / | / | -2.8%[11.5 µM] | /

Next section
SMILES | TSHR agonist | A647 fluor | A488 fluor | AID923 | Resorufin autofl
O=S1(=O)CCN2C=Nc3sc4c(c3C2=N1)CCCC4 | -6% | 2.9e-09 | i | -1.5% | i
CC1CCc2nc(NC(=O)CN3CCN(Cc4ccc5c(c4)OCO5)CC3)sc2C1 (centres undefined) | ? | 1e-09 | i | 0.6% | i
COc1cc(C2CC(=O)N(CC(=O)NCc3ccco3)c3ccccc3S2)cc(OC)c1OC (centres undefined) | 8% | / | / | 0.5% | /
CCCCN(CC)C(=O)c1ccc(Cl)c(Cl)c1 | ? | 1e-09 | i | 1.0% | i
O=C1CC(NCc2ccco2)C(=O)N1CCc1ccccc1 (centres undefined) | -1% | 5.6e-09 | i | -1.3% | i
Cn1c(=O)c(=O)n(C)c2cc(S(=O)(=O)N3CCN(c4cccc(C(F)(F)F)c4)CC3)ccc21 | 6% | 1e-09 | i | 0.3% | i
COCCNC(=O)c1cc(-c2ccc3c(c2)OCO3)on1 | 1% | 4.2e-09 | i | -1.1% | i
COC(=O)CSc1nc2cc(OC)ccc2cc1C#N | -2% | 1.6e-08 | i | -0.8% | i
c1c2c(cc3sc(N4CCCCC4)nc13)OCCO2 | 8% | 3.3e-08 | i | -1.9% | i
Cc1ccc(C(=O)Nc2nc(COc3ccccc3)cs2)s1 | 15% | 1e-09 | i | 0.7% | i
Cc1nnc(N)nc1C | -10% | 5.1e-09 | i | -0.8% | i
COc1ccc(-c2csc(N3CCOCC3)n2)cc1OC | -2% | 7.7e-09 | i | -1.1% | i
CCOc1ccc2nc(NC(=O)CSc3nc4c(c(=O)n(C)c(=O)n4C)n3CC)sc2c1 | 28% | 2.8e-08 | i | -0.3% | i
Cc1cccc(C#Cc2ccccc2)n1 | 25%&4% | 2.5e-08 | i | -1.7%&-2.8% | i
CCN(CC)CCN1C(=O)C(O)=C(C(=O)c2cc3ccccc3o2)C1c1cccnc1 (centres undefined) | / | 1e-09 | i | / | i
CCCCC[C@H](O)c1cccc(OCc2ccc3ccccc3n2)c1 | ? | 1e-09 | i | 0.3% | i
Cc1ccc(OCCn2ccc(=O)[nH]c2=O)cc1C | 6%[11.4 µM] | 3.6e-09 | i | 0.8% | i

A portion of the library. The share of hits here may be higher or lower than overall.
